# FGF22 binding: binders of human FGF22 protein, primary screen, FGF22 synaptogenesis inhibitor project, biophysical, thermal shift, single point; Fibroblast growth factor 22 (Homo sapiens), Q9HCT0; hit rate 1.5% among 340,000; recombinant FGF22 thermal shift, SYPRO orange fluorescence; percent of sucrose octasulfate shift, DMSO zero; AID 651658, 2012; calls only at 9.99 µM;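 active = melting point raised past a set limit in the mean and every replicate; three in four hits are not shown here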
# Target sequence (Q9HCT0 whole entry, looked up): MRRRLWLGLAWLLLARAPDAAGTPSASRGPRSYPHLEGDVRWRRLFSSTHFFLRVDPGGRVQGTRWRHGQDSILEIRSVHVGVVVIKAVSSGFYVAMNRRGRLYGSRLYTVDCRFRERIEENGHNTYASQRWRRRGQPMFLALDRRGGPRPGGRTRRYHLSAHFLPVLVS
# Calls only; i = inactive; + = active, no number. These rows are one share of the data; rates above refer to the full screens.
no.	canonical_smiles	FGF22 binding
1	O=S(=O)(Cc1ccccc1)N1CCCCN2[C@H](CO)[C@@H](c3ccc(-c4ccccc4)cc3)[C@H]2C1	i
2	C[C@@H]1CCCCO[C@@H](CN(C)Cc2ccccc2)[C@@H](C)CN([C@H](C)CO)C(=O)c2cc(NC(=O)Nc3ccc(C(F)(F)F)cc3)ccc2O1	i
3	C[C@H](CO)N1C[C@H](C)[C@@H](CN(C)C(=O)C2CC2)Oc2cc(/C=C/c3ccccc3)ccc2S1(=O)=O	i
4	O=C(Cc1ccncc1)N[C@@H]1CC[C@@H](CCn2cc(-c3ccccc3F)nn2)O[C@H]1CO	i
5	C[C@H](CO)N1C[C@H](C)[C@@H](CN(C)S(=O)(=O)c2ccc(Cl)cc2)Oc2ccc(NC(=O)Nc3ccc(F)cc3)cc2C1=O	i
6	CNC[C@@H]1OCCCC[C@@H](C)Oc2ccc(NC(=O)NC3CCCCC3)cc2C(=O)N([C@H](C)CO)C[C@H]1C	i
7	CCC(=O)Nc1ccc2c(c1)C(=O)N(C)C[C@H](OC)[C@H](C)CN(C(=O)Cc1ccccn1)[C@@H](C)CO2	i
8	CC(C)C#Cc1cnc2c(c1)C(=O)N([C@@H](C)CO)C[C@H](C)[C@@H](CN(C)C(=O)Nc1ccccc1F)O2	i
9	C[C@H](NC(=O)C[C@H]1CC[C@H](NC(=O)C2CCC2)[C@H](CO)O1)c1ccccc1	i
10	COc1ccc(S(=O)(=O)N(C)C[C@@H]2Oc3c(NC(=O)Nc4ccc(C(F)(F)F)cc4)cccc3C(=O)N([C@@H](C)CO)C[C@H]2C)cc1	i
11	COc1ccc(S(=O)(=O)N[C@H]2C=C[C@@H](CC(=O)NCCc3ccccc3)O[C@@H]2CO)cc1	i
12	C[C@@H]1CN([C@H](C)CO)C(=O)c2c(c3ccccc3n2C)-c2ccccc2CO[C@H]1CN(C)S(=O)(=O)c1ccc(Cl)cc1	i
13	Cc1noc(C)c1NC(=O)Nc1ccc2c(c1)C(=O)N(C)[C@H]1CC[C@H](CC(=O)N(C)C)O[C@H]1CO2	i
14	CCCC(=O)N1CC2(CCN(C(=O)Nc3cccc(F)c3)CC2)c2c(n(C)c3cc(OC)ccc23)[C@H]1CO	i
15	C[C@@H]1CN([C@@H](C)CO)C(=O)c2cccc(NS(=O)(=O)c3cn(C)cn3)c2O[C@H]1CN(C)Cc1ccccc1	i
16	COCC(=O)Nc1ccc2c(c1)C(=O)N(C)C[C@@H](OC)[C@H](C)CN(Cc1ccncc1)[C@H](C)CO2	i
17	C[C@H](O)C#Cc1ccc2c(c1)O[C@H](CN(C)Cc1cncnc1)[C@@H](C)CN([C@H](C)CO)S2(=O)=O	i
18	COc1ccccc1-c1cnc2c(c1)C(=O)N([C@H](C)CO)C[C@@H](C)[C@@H](CN(C)C)O2	i
19	C[C@H](CO)N1C[C@H](C)[C@@H](CN(C)Cc2ccccc2)Oc2cc(C3=CCCC3)ccc2S1(=O)=O	i
20	C[C@@H]1CN([C@@H](C)CO)C(=O)c2cc(NC(=O)Nc3ccc(F)cc3)ccc2O[C@H]1CN(C)C(=O)Nc1ccc(F)cc1	i
21	C[C@@H]1CN([C@@H](C)CO)C(=O)c2cc(NC(=O)Nc3ccc4c(c3)OCO4)ccc2O[C@@H](C)CCCCO[C@@H]1CN(C)C	i
22	C[C@@H]1CN([C@@H](C)CO)C(=O)Cc2cc(NC(=O)Nc3ccccc3)ccc2O[C@H]1CN(C)C	i
23	O=C(C[C@@H]1C[C@H]2c3cc(NC(=O)Nc4ccccc4)ccc3O[C@H]2[C@@H](CO)O1)NCc1cccc(F)c1	i
24	Cc1ccc(S(=O)(=O)N(C)C[C@H]2OCCCC[C@H](C)Oc3ccc(NC(=O)Nc4c(C)noc4C)cc3C(=O)N([C@H](C)CO)C[C@@H]2C)cc1	i
25	C[C@@H]1CN([C@H](C)CO)C(=O)c2cc(NC(=O)Cn3cnnn3)ccc2O[C@@H]1CN(C)C(=O)NC1CCCCC1	i
26	C[C@H](CO)N1C[C@H](C)[C@H](CN(C)S(C)(=O)=O)Oc2ccc(N(C)C)cc2C1=O	i
27	O=C(Nc1ccc(F)cc1)N1CCCCN2[C@H](CO)[C@H](c3ccc(C#Cc4ccccc4)cc3)[C@@H]2C1	i
28	Cc1ccc(-c2ccc([C@H]3[C@H](CO)N4CCCCN(S(=O)(=O)c5ccccc5C)C[C@@H]34)cc2)cc1	i
29	C[C@H]1CN([C@@H](C)CO)C(=O)c2cc(N(C)C)ccc2O[C@H]1CN(C)C(=O)Nc1ccc2c(c1)OCO2	i
30	C[C@H](CO)N1C[C@H](C)[C@H](CN(C)C(=O)C2CCC2)Oc2ncc(C#CCc3ccccc3)cc2C1=O	i
31	C[C@@H]1CCCCO[C@@H](CN(C)CC2CCCCC2)[C@@H](C)CN([C@@H](C)CO)C(=O)c2cc(NC(=O)Nc3ccccc3)ccc2O1	i
32	COc1cccc(S(=O)(=O)N[C@H]2CC[C@@H](CC(=O)NCc3ccc(Cl)cc3)O[C@H]2CO)c1	i
33	C[C@H]1CN([C@@H](C)CO)C(=O)c2cccc(NS(C)(=O)=O)c2O[C@H]1CN(C)S(=O)(=O)c1ccccc1	i
34	Cc1noc(C)c1NC(=O)Nc1ccc2c(c1)C(=O)N([C@H](C)CO)C[C@@H](C)[C@H](CN(C)C(=O)Nc1ccc(C(F)(F)F)cc1)OCCCC[C@@H](C)O2	i
35	CC(C)C#Cc1ccc([C@@H]2[C@H]3CN(C(=O)Nc4ccccc4)CCCCN3[C@H]2CO)cc1	i
36	Cn1cnc(CCNC(=O)C[C@@H]2CC[C@@H]3[C@H](COC[C@H](O)CN3C(=O)C3CCCC3)O2)c1	i
37	CCCc1ccc(-c2cc(NC(=O)Cc3c[nH]c4ccccc34)ccc2Nc2cccnc2)cc1	i
38	C/C=C/c1cccc(-c2nc(C(=O)NCc3ccc(OC)cc3)cc3c2[C@H](CCO)N([S@@](=O)C(C)(C)C)C3)c1	i
39	COCCNC(=O)C[C@@H]1CC[C@H]2[C@@H](COC[C@H](O)CN2C(=O)Nc2ccccc2OC)O1	i
40	CO[C@H]1CN(C)C(=O)c2ccc(NS(=O)(=O)c3cn(C)cn3)cc2OC[C@@H](C)N(CCC(F)(F)F)C[C@@H]1C	i
41	COc1ccc(NC(=O)N2CC3(C2)CN(C(=O)CN2CCOCC2)[C@H](CO)c2[nH]c4cc(OC)ccc4c23)cc1	i
42	C[C@H]1CN([C@@H](C)CO)C(=O)c2cc(C#CC3(O)CCCC3)cnc2O[C@H]1CN(C)S(=O)(=O)c1ccccc1	i
43	O=C(C[C@H]1CC[C@@H]2[C@H](COC[C@H](O)CN2Cc2ccncc2)O1)NCc1ccccc1Cl	i
44	CN1c2ccc(-c3ccc(C#N)cc3)cc2[C@H]2[C@H](CCN2C(=O)NC2CCCC2)[C@@H]1CO	i
45	O=C(NCC[C@@H]1CC[C@H](NS(=O)(=O)c2ccc(Oc3ccccc3)cc2)[C@H](CO)O1)C1CC1	i
46	COc1ccc2c3c(n(C)c2c1)[C@@H](CO)N(C(=O)c1ccc(F)cc1)CC31CCN(CC2CCOCC2)CC1	i
47	C[C@@H]1CCCCO[C@H](CN(C)C(=O)Cc2ccccc2)[C@H](C)CN([C@@H](C)CO)C(=O)c2cc(NC(=O)Cc3ccccc3)ccc2O1	i
48	CC(C)C(=O)Nc1ccc2c(c1)C(=O)N(C)[C@H]1CC[C@@H](CC(=O)NCCc3ccccc3)O[C@@H]1CO2	i

# Brought forward from above: three compounds, followed by the next part.
no.	canonical_smiles	FGF22 binding
46	COc1ccc2c3c(n(C)c2c1)[C@@H](CO)N(C(=O)c1ccc(F)cc1)CC31CCN(CC2CCOCC2)CC1	i
47	C[C@@H]1CCCCO[C@H](CN(C)C(=O)Cc2ccccc2)[C@H](C)CN([C@@H](C)CO)C(=O)c2cc(NC(=O)Cc3ccccc3)ccc2O1	i
48	CC(C)C(=O)Nc1ccc2c(c1)C(=O)N(C)[C@H]1CC[C@@H](CC(=O)NCCc3ccccc3)O[C@@H]1CO2	i
49	CC(C)NC(=O)N(C)C[C@H]1Oc2ncc(C#Cc3ccccc3F)cc2C(=O)N([C@H](C)CO)C[C@H]1C	i
50	C[C@@H]1CN([C@@H](C)CO)C(=O)c2cc(NC(=O)c3ccncc3)ccc2O[C@@H]1CN(C)Cc1ccncc1	i
51	COCCNC(=O)C[C@H]1CC[C@@H]2[C@H](COC[C@@H](O)CN2C(=O)Nc2ccccc2OC)O1	i
52	O=C(N[C@H](C(=O)N1CCC[C@H]1C(=O)NCc1ccccc1)c1ccccc1)c1ccccc1	i
53	COc1ccc(CNC(=O)N(C)C[C@H]2OCc3ccccc3-c3ccccc3C(=O)N([C@H](C)CO)C[C@@H]2C)cc1	i
54	COc1ccc2c3c(n(C)c2c1)[C@H](CO)N(Cc1ccccc1F)CC31CCN(C(=O)C2CCCC2)CC1	i
55	C[C@@H]1CN([C@H](C)CO)S(=O)(=O)c2ccc(C#C[C@@H](C)O)cc2O[C@H]1CN(C)C(=O)C1CC1	i
56	C[C@H]1CN([C@@H](C)CO)C(=O)c2cc(C3=CCCC3)cnc2O[C@@H]1CN(C)C(=O)Nc1cccc(F)c1	i
57	C[C@@H]1CN([C@@H](C)CO)C(=O)Cc2cc(NC(=O)Nc3ccc(C(F)(F)F)cc3)ccc2O[C@@H]1CN(C)S(C)(=O)=O	i
58	O=C(Cc1ccccn1)NCC[C@@H]1CC[C@H](NC(=O)Nc2ccc(Cl)cc2)[C@H](CO)O1	i
59	COc1ccc2c3c([nH]c2c1)[C@H](CO)N(C(=O)c1cccnc1)CC31CN(Cc2cccnc2)C1	i
60	C[C@H](CO)N1C[C@H](C)[C@@H](CN(C)Cc2ccc3c(c2)OCO3)Oc2c(NS(=O)(=O)c3ccccc3)cccc2C1=O	i
61	COCC#Cc1ccc2c(c1)O[C@@H](CN(C)C(=O)Nc1ccccc1F)[C@H](C)CN([C@H](C)CO)S2(=O)=O	i
62	CC(=O)N1CCCCN2[C@H](CO)[C@H](c3ccc(-c4cccc(C(=O)N(C)C)c4)cc3)[C@H]2C1	i
63	C[C@H](CO)N1C[C@H](C)[C@H](CN(C)S(=O)(=O)c2cn(C)cn2)OCCCC[C@H](C)Oc2ccc(NS(=O)(=O)c3ccc(Cl)cc3)cc2C1=O	i
64	CCNC(=O)[C@@H]1[C@@H](CO)[C@@H]2Cn3c(ccc(-c4ccncc4)c3=O)[C@@H]2N1Cc1ccccc1	i
65	O=C(Nc1ccc2c(c1)[C@H]1C[C@@H](CC(=O)N3CCc4ccccc4C3)O[C@H](CO)[C@H]1O2)C1CCC1	i
66	Cc1noc(C)c1NC(=O)Nc1ccc2c(c1)C(=O)N([C@H](C)CO)C[C@@H](C)[C@@H](CN(C)C(=O)Nc1ccc(F)cc1)O2	i
67	N#C[C@@H]1[C@H](c2ccccc2-c2cccc(F)c2)[C@@H](CO)N1S(=O)(=O)c1cccc(F)c1	i
68	Cc1ccccc1NC(=O)N(C)[C@H]1C[C@H]2c3[nH]c4c(-c5ccc6c(c5)OCO6)cccc4c3CCN2C(=O)[C@H]1[C@H](C)O	i
69	CNC(=O)C[C@@H]1CC[C@@H]2[C@@H](COc3ccc(NC(=O)C4CC4)cc3C(=O)N2C)O1	i
70	Cc1noc(C)c1S(=O)(=O)N(C)C[C@H]1Oc2ccc(NC(=O)NC3CCCCC3)cc2CC(=O)N([C@H](C)CO)C[C@H]1C	i
71	Cc1ccccc1S(=O)(=O)N(C)C[C@H]1OCc2ccccc2-c2ccccc2C(=O)N([C@H](C)CO)C[C@@H]1C	i
72	COc1ccc(S(=O)(=O)N[C@H]2CC[C@H](CC(=O)O)O[C@@H]2CO)cc1	i
73	COC(=O)C1=C(C)N(C)C(=NCc2ccc(C(F)(F)F)cc2)NC1c1cccc(Cl)c1 (stereo unspecified)	i
74	O=C(C[C@H]1C=C[C@H](NC(=O)C2CC2)[C@@H](CO)O1)Nc1ccccc1	i
75	CC(=O)N1[C@@H]2c3ccc(-c4ccccc4)c(=O)n3C[C@@H]2[C@@H](CO)[C@@H]1C(=O)N1CCCCC1	i
76	Cc1noc(C)c1NC(=O)NCC[C@H]1CC[C@H](NC(=O)Cc2cccnc2)[C@H](CO)O1	i
77	C[C@@H](NC(=O)C[C@@H]1C=C[C@@H](NS(=O)(=O)c2cccc(F)c2)[C@H](CO)O1)c1ccccc1	i
78	O=C(N[C@H]1CC[C@H](CCNS(=O)(=O)c2ccccc2Cl)O[C@H]1CO)c1ccc(F)cc1	i
79	CC(C)C#Cc1cnc2c(c1)C(=O)N([C@H](C)CO)C[C@H](C)[C@@H](CN(C)C(=O)CCN1CCCCC1)O2	i
80	COc1ccc(CN(C)C[C@H]2OCCCC[C@@H](C)Oc3ccc(NS(=O)(=O)c4ccc(F)cc4)cc3C(=O)N([C@H](C)CO)C[C@H]2C)cc1	i
81	C[C@@H]1CCCCO[C@@H](CN(C)C(=O)Nc2ccc(F)cc2)[C@H](C)CN([C@@H](C)CO)C(=O)c2cc(NC(=O)Nc3ccc(C(F)(F)F)cc3)ccc2O1	+
82	C[C@@H]1CN([C@H](C)CO)C(=O)c2cc(NC(=O)Nc3ccccc3)ccc2O[C@@H]1CN(C)S(=O)(=O)c1ccccc1	i

# Taken from the results shown (6 entries):
no.	canonical_smiles	FGF22 binding
1	O=S(=O)(Cc1ccccc1)N1CCCCN2[C@H](CO)[C@@H](c3ccc(-c4ccccc4)cc3)[C@H]2C1	i
2	C[C@@H]1CCCCO[C@@H](CN(C)Cc2ccccc2)[C@@H](C)CN([C@H](C)CO)C(=O)c2cc(NC(=O)Nc3ccc(C(F)(F)F)cc3)ccc2O1	i
3	C[C@H](CO)N1C[C@H](C)[C@@H](CN(C)C(=O)C2CC2)Oc2cc(/C=C/c3ccccc3)ccc2S1(=O)=O	i
4	O=C(Cc1ccncc1)N[C@@H]1CC[C@@H](CCn2cc(-c3ccccc3F)nn2)O[C@H]1CO	i
5	C[C@H](CO)N1C[C@H](C)[C@@H](CN(C)S(=O)(=O)c2ccc(Cl)cc2)Oc2ccc(NC(=O)Nc3ccc(F)cc3)cc2C1=O	i
6	CNC[C@@H]1OCCCC[C@@H](C)Oc2ccc(NC(=O)NC3CCCCC3)cc2C(=O)N([C@H](C)CO)C[C@H]1C	i

# High-throughput results: PubChem BioAssay, Broad Institute
